Compound activity (PubChem)
TAR Tat displ: TAR RNA-Tat peptide displacers, HIV-1, primary screen, biochemical, FRET, FAM/TAMRA-labeled Tat | HIV-1 TAR RNA, Tat peptide displacement FRET; active compounds read high | AID 1259389, 2018 | z-score (no concentration beside the values) | actives 0.6% (n = 100,000);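 note: score is relative to mean and SD of negative controls; some compounds called inactive have numbers as strong as hits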
CDC25B-CDK2 inh: primary biochemical HTRF screen for blockers of M-phase inducer phosphatase 2 binding to CDK2/cyclin A; HTRF CDC25B-CDK2/CyclinA binding, anti-His/anti-Flag; active compounds read high; z-score (no concentration beside the values); actives 0.72% (n = 94,000); AID 1259370, 2018;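 note: score is relative to mean and SD of negative controls; strong numbers were not always called active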
An asterisk follows results filed as active; . = not tested or not shown.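 Rule for the calls: active = z-score from 3 up in half or more of its runs; inactive = the rest.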 The order is random; 0.94% or so of the library scored in one or more.

no.	SMILES	CDC25B-CDK2 inh	TAR Tat displ
1	Cc1ccc(-c2onc(C)c2C)cc1S(=O)(=O)NCc1ccc(F)cc1	.	1.4
2	CCCC1(C)N=C(c2ccc(OCC)cc2)CC(c2ccccc2O)N1 (configuration not stated)	0.74	.
3	COc1ccc(NC(=O)CSc2nncn3c2cc2sccc23)cc1OC	.	4.8
4	Cc1ccc(CN2C=NS(=O)(=O)c3ccc(C)cc32)cc1	.	1.3
5	CC1(C)CC(=O)C(C2(O)C(=O)N(Cc3ccccc3)c3ccccc32)CO1 (configuration not stated)	-1.8	-4.6
6	Cn1c(SCC(=O)NNC(=O)c2cccc3ccccc23)nnc1-c1ccco1	-1.1	.
7	Oc1ccc2ncccc2c1C(Nc1ccccn1)c1cccc(Cl)c1 (configuration not stated)	15*	1.4
8	CCN(CC)CCNc1cc(C)nc2cc(-c3ccc(OC)c(OC)c3)nn12	1.7	4*
9	Cn1c(=O)c(C(=O)Nc2ccc3c(c2)OCCO3)nn(-c2ccc(Cl)cc2)c1=O	.	1.1
10	COc1ccccc1-c1noc2ncnc(NC3CC3)c12	.	1.2
11	Clc1ccc(-c2cn3c4c(sc3n2)CCCC4)cc1	-2.1	-0.33
12	CC(C)(C)OC(=O)NC(CC(N)=O)C(=O)O (configuration not stated)	-1.2	.
13	Cc1noc(C)c1S(=O)(=O)Nc1ccc(Cl)cc1	-0.26	-0.46
14	CC1CCCCN1c1nnc(NC(=O)Nc2ccc(Br)cc2F)s1 (configuration not stated)	0.97	2.3
15	Cc1nn(C(C)C(=O)N2CCN(c3ccccn3)CC2)c(=O)c2cc3occc3n12 (configuration not stated)	-1.9	2
16	CN(C)c1ccc(CNCCC(c2ccccc2)C2CCOC(C)(C)C2)cc1 (configuration not stated)	0.45	-0.78
17	Cc1ccc(-c2csc3ncn(CCN4CCOCC4)c(=O)c23)cc1	-2.6	1.8
18	CCCCOC(=O)C1=C(C)NC2=C(C(=O)CC(C)(C)C2)C1c1ccc(OC)cc1 (configuration not stated)	-0.44	0.93
19	Cn1nc(C(F)(F)F)c2cc(C(=O)Nc3ccc(F)c(Cl)c3)sc21	-0.35	.
20	O=[N+]([O-])c1cccnc1Sc1ccccc1C1=NCCCN1	-1.6	.
21	CCOC(=O)c1c(C)n(-c2ccccc2)c2ccc(OC)cc12	3.6	.
22	COc1ccc(Nc2ncnc3c2cnn3-c2ccc(F)cc2)cc1OC	.	2.1
23	COc1ccc(OC)c(NS(=O)(=O)c2ccc3c(c2)CC(C)N3C(=O)C2CCC2)c1 (configuration not stated)	.	-1
24	Cn1nc(-c2ccc(N3CCOCC3)c(NS(C)(=O)=O)c2)c2ccccc2c1=O	0.06	1.8
25	CCN1CCN(Cc2nc3c(c(=O)n(C)c(=O)n3C)n2CCOC)CC1	-1.7	.
26	O=C1CN(C(=O)CN2CCOCC2)c2ccccc2N1	-0.17	0.21
27	Cc1cccc(OC(C)c2nc3ccccc3[nH]2)c1C (configuration not stated)	1.1	1
28	Cc1cccc(NC(=O)c2nn(C)c3c2CSc2ccccc2-3)n1	-1.7	0.42
29	COc1cccc2oc(-c3ccccc3)cc(=O)c12	.	1.4
30	O=C(NC1CCCCC1)c1cc2c(s1)-c1ccc(Cl)cc1S(=O)(=O)C2	-1.5	0.44

From entry 26 to 30, copied from above:
no.	SMILES	CDC25B-CDK2 inh	TAR Tat displ
26	O=C1CN(C(=O)CN2CCOCC2)c2ccccc2N1	-0.17	0.21
27	Cc1cccc(OC(C)c2nc3ccccc3[nH]2)c1C (configuration not stated)	1.1	1
28	Cc1cccc(NC(=O)c2nn(C)c3c2CSc2ccccc2-3)n1	-1.7	0.42
29	COc1cccc2oc(-c3ccccc3)cc(=O)c12	.	1.4
30	O=C(NC1CCCCC1)c1cc2c(s1)-c1ccc(Cl)cc1S(=O)(=O)C2	-1.5	0.44

In the list so far, these contain an aryl thioether with sulfur outside any ring.
no.	SMILES	CDC25B-CDK2 inh	TAR Tat displ
3	COc1ccc(NC(=O)CSc2nncn3c2cc2sccc23)cc1OC	.	4.8
6	Cn1c(SCC(=O)NNC(=O)c2cccc3ccccc23)nnc1-c1ccco1	-1.1	.
20	O=[N+]([O-])c1cccnc1Sc1ccccc1C1=NCCCN1	-1.6	.

The main list resumes, starting three compounds before the break.
no.	SMILES	CDC25B-CDK2 inh	TAR Tat displ
28	Cc1cccc(NC(=O)c2nn(C)c3c2CSc2ccccc2-3)n1	-1.7	0.42
29	COc1cccc2oc(-c3ccccc3)cc(=O)c12	.	1.4
30	O=C(NC1CCCCC1)c1cc2c(s1)-c1ccc(Cl)cc1S(=O)(=O)C2	-1.5	0.44
31	Cc1cc(C(=O)N2CCN(c3ccc(N4CCOCC4)nn3)CC2)n[nH]1	.	0.72
32	CC(C)c1ccc(OCCN2CCNCC2)cc1	-1.3	0.1
33	Cc1nn2c(=O)c(NC(=O)c3ccccc3)cnc2s1	-1.7	1.6
34	Cc1c(C(=O)OCC(C)(C)CN(C)C)oc2ccccc12	0.3	0.36
35	NC(=S)NN=C1Cc2ccccc2C1	1.3	.
36	COc1ccc(C(N)CCc2ccco2)cc1 (configuration not stated)	.	-6.5
37	Cc1ccc(C)c(N2CCN(S(=O)(=O)c3cc4c(cc3C)N(C)CCO4)CC2)c1	.	2.5
38	Cc1nc([N+](=O)[O-])c(Br)n1CC(=O)c1ccc2ccccc2c1	0.33	0.51
39	O=C(CSc1nnc(SCC(=O)NC2Cc3ccccc3C2)s1)NC1Cc2ccccc2C1	0.76	.
40	COc1cccc(-c2nc(COc3ccccc3-c3nnc(-c4ccccc4)o3)c(C)o2)c1OC	.	-0.35
41	COc1ccc(Nc2ncnc3nc[nH]c23)cc1	0.65	.
42	Cn1ncc2ccccc2c1=O	-0.75	.
43	CC(C)CNc1cnnc2c(Cl)cccc12	-1.2	1
44	O=C1C2CCCN2C(=S)N1c1ccccc1F (configuration not stated)	-3.7	.
45	O=C(NCc1cccs1)NC(=O)c1c(Cl)cccc1Cl	-2.3	.
46	CCOc1cc(/C=C2/SC(=S)N(CC)C2=O)ccc1OCc1ccc(Cl)cc1	-1.8	.
47	O=S(=O)(NCc1cccnc1)c1ccccc1	-0.54	1.4
48	CCCCc1nn2c(=O)cc(COC(=O)C(C)C)nc2s1	.	0.92
49	COc1ccc(C(=O)c2cn(Cc3ccccc3OC)c3c(F)cc(F)cc3c2=O)cc1	-0.7	0.93
50	COc1ccc(Nc2cc(C)nc3ncnn23)cc1	-0.77	.
51	O=C(c1cc(C2CC2)on1)N1CCCC1c1ccccc1Cl (configuration not stated)	-2.2	-0.43
52	COc1cc(C2c3c(oc4ccccc4c3=O)C(=O)N2c2nncs2)ccc1OCC(C)C (configuration not stated)	1.5	-0.29
53	CCCN1CCN(C(=O)CCc2c(C)nn(-c3ccc(N4CCCC4)nn3)c2C)CC1	.	0.15
54	C=CCOC(=O)c1sc(N2C(=O)c3oc4ccccc4c(=O)c3C2c2ccccc2F)nc1C (configuration not stated)	1.4	2.7
55	CC(C(=O)N1CCN(c2ccccn2)CC1)N1Cc2ccccc2C1=O (configuration not stated)	.	1.2
56	COc1ccc(-c2nc3n(n2)C(c2cccc(OC)c2OC)C2=C(CCCC2=O)N3)cc1OC (configuration not stated)	-0.04	1.4
57	CC1(C)C=C(C(N)=O)C(C)(C)N1	-1.7	.
58	O=S(=O)(c1ccccc1Oc1ccc(Cl)cc1Cl)N1CCOCC1	-1.9	.
59	COC(=O)c1c(NC(=O)CCC(=O)O)sc2c1CCCCCCCCCC2	-0.13	.
60	CC1CCCC1/C(=N/O)c1ccccc1 (configuration not stated)	0.27	.
61	COc1ccc2oc(=O)c(-c3csc(N/N=C/c4ccccc4O)n3)cc2c1	-3.2	.
62	CC1CC(=O)Nc2cc(S(=O)(=O)N3CC=C(c4ccccc4)CC3)ccc2S1 (configuration not stated)	.	2.6
63	CCOC(=O)Cc1csc(NC(=O)c2ccc(Cl)cc2)n1	-1.1	.
64	CCCOc1ccc(Oc2nc(N3CCOCC3)nc(N3CCOCC3)n2)nn1	1.1	.
65	C=CCOc1ccc(C2c3c(oc4ccc(F)cc4c3=O)C(=O)N2c2ccc(C)cn2)cc1OC (configuration not stated)	-4.3	-5.3
66	O=C(Nc1ccc(Br)cc1)C1Nc2ccccc2S(=O)(=O)N1 (configuration not stated)	.	1.8
67	CC(=O)Nc1nc2cc(NS(=O)(=O)c3ccc(Br)cc3)ccc2s1	.	0.96
68	CC(C)CCSc1nc2c(c(=O)[nH]c(=O)n2C)n1CC(O)COc1ccc(Cl)cc1 (configuration not stated)	0.71	.
69	COc1ccc(C2c3sc(=O)[nH]c3SC3C(=O)N(c4ccc(C)cc4)C(=O)C32)cc1 (configuration not stated)	-0.78	.
70	Cn1c(=O)c(=O)n(CC(=O)N2CCN(c3ccccn3)CC2)c2ccccc21	.	0.92
71	CNc1oc(-c2ccccc2)nc1S(=O)(=O)c1ccccc1	.	1.7
72	COc1cc(I)c(OC)cc1I	-1.6	.
73	O=C(CSc1ccccc1)OCc1cc(=O)n2ccsc2n1	.	-0.21
74	CC(=O)NC(COC(C)=O)C(OC(C)=O)c1ccc([N+](=O)[O-])cc1 (configuration not stated)	0.04	.
75	CC(C)(C)OC(=O)NNC(=O)C12CC3CC(CC(C3)C1)C2	-2	.
76	CCOc1ccccc1-n1nnc(-c2nc(-c3cccs3)no2)c1N	.	2.1
77	CCCOC(=O)C1=C(C)NC2=C(C(=O)CC(C)(C)C2)C1c1cc(Br)c(O)c(OC)c1 (configuration not stated)	-2.2	0.09
78	FC(F)(F)c1ccnc(Oc2ccc(/C=N/NC(=S)Nc3cc(Cl)ccc3Cl)cc2)n1	0.4	.
79	COc1ccc(-c2nc3ccc(NS(=O)(=O)c4ccc(Cl)cc4)cc3o2)cc1	0.17	1.2
80	CCCCCOC(=O)C1=C(C)Nc2nnnn2C1c1ccc(OC)c(OC)c1 (configuration not stated)	-1.2	-1
81	CCOC(=O)CSCc1noc(COc2ccc(Cl)cc2Cl)n1	-0.2	.
82	CCCCNC(=O)Oc1ccc(C2=NCCS2)cc1	-1.7	.
83	COc1cnc(CSc2nnnn2C)cc1OCC(=O)Nc1ccccc1	.	0.92
84	CC(C)c1ccc(C2CC(c3cccs3)n3nnnc3N2)cc1 (configuration not stated)	.	3.1
85	Cc1ccc(C2N3CC4(C(C)C)CN2CC(C(C)C)(C3)C4=O)cc1 (configuration not stated)	-1.2	.
86	CC(=O)c1cc2c(cc1O)OC(C)(C)C=C2	.	2.6
87	COC(=O)c1cc(NC(=O)COc2cc(Cl)c(Cl)cc2Cl)cc(C(=O)OC)c1	-2.2	.
88	Cc1ccc(-n2ncc3c(NCC4CCCO4)ncnc32)c(C)c1 (configuration not stated)	-2.1	0.71
89	CC(=O)Nc1c2n(c3ccc(F)cc13)CC(C)(C(=O)NC1CCCC1)N(c1cc(C)cc(C)c1)C2=O (configuration not stated)	.	1.3
90	CC(C)(C)NC(=O)CSc1cn(CC(=O)N2CCCC2)c2ccccc12	.	-0.5

More records
no.	SMILES	CDC25B-CDK2 inh	TAR Tat displ
91	CC(=O)OC12CC3CC(C1)C(O)C(C3)C2 (configuration not stated)	-2.2	.
92	CCOC(=O)C1=C(C)N=C2SCCC(=O)N2C1c1ccccc1 (configuration not stated)	1.4	0.78
93	CC(=O)SCC[N+](C)(C)C	-1.8	.
94	CCc1nc(SCC(=O)N2CCCc3ccccc32)c2c(=O)n(C)c(=O)n(C)c2n1	.	-0.02
95	O=C(Nc1ccc2c(c1)OCCO2)c1ncoc1-c1cccs1	.	2.5
96	Cc1cccn2c(=O)c3cc(C(=O)N4CCCc5ccccc54)n(C)c3nc12	.	0.9
97	CCOC(=O)c1c(C)oc2ncnc(NCc3ccccn3)c12	.	-1.4
98	Fc1ccc(N2CCN(c3ncnc4onc(-c5ccc(Cl)cc5)c34)CC2)cc1	-0.83	-0.7
99	CNC(=O)c1ccc2c(c1)CCCN2S(C)(=O)=O	-0.93	2
100	CC1(C)C(=O)N(CC(=O)NC2CCCC2)c2ccccc21	.	0.4
101	Cn1c(=O)c2sccc2n2c(CCCC(=O)Nc3ccc(F)cc3F)nnc12	-1.8	-0.66
102	O=C1Nc2ccccc2C1Cc1cccc(Cl)c1 (configuration not stated)	0.55	1.3
103	CCOC(=O)c1c(N)n(-c2ccc(OC)c(OC)c2)c2nc3ccccc3nc12	-1.1	.
104	COc1ccccc1-c1noc2ncnc(NCCN(C)C3CCCCC3)c12	.	2.1
105	CC1(C)CC(=O)C2=C(C1)OC(c1ccc(O)cc1)C(C#N)=C2N (configuration not stated)	-1.3	.
106	O=C(CSc1nc2c(c(=O)[nH]1)CCCC2)NCc1ccco1	0.16	2
107	CC1CN(C(=O)N2CCC(C(=O)N3CCCCC3)CC2)c2ccccc2O1 (configuration not stated)	.	0.88
108	COCCn1c(CN2CCN(S(=O)(=O)c3ccc(Cl)cc3)CC2)nc2ccccc2c1=O	.	0.4
109	Cc1csc(NC(=O)CN2C(=O)C(C)(C)c3ccccc32)n1	.	0.17
110	CCCOC(=O)NC(Nc1nccs1)(C(=O)OCC)C(F)(F)F (configuration not stated)	-2.1	.
111	N#CC1=C(Nc2ccccc2Cl)SC(c2c(Cl)cccc2Cl)NC1=O (configuration not stated)	-0.42	.
112	Cc1c(NC(=O)Nc2ccccc2Cl)c(=O)n(-c2ccccc2)n1C	-1.2	1.4
113	O=C(Cn1c(=O)oc2cc(S(=O)(=O)N3CCOCC3)ccc21)Nc1ccc(F)c(F)c1	-0.79	-0.31
114	CCNC(=O)c1c(C)c(C(=O)OCC)n(CC)c1C	-1.8	.
115	O=c1ccc2cc(S(=O)(=O)N3CCN(c4ccccc4F)CC3)ccc2[nH]1	.	2.4
